# D2 ag: human D2 receptor agonism in beta-arrestin assay; P14416; DiscoveRx PathHunter D2 beta-arrestin, luminescence, 90 min; 100% = 57 uM dopamine signal; activation, % (no concentration beside the values); 0.084% of 360,000 active; in the data active = activation above about 40%; inconclusive = about 15% to 40%; inactive = below about 15%; also: compound concentration not given in the record; the text of the record calls up to 30% inactive
# Target sequence (P14416 whole entry, looked up): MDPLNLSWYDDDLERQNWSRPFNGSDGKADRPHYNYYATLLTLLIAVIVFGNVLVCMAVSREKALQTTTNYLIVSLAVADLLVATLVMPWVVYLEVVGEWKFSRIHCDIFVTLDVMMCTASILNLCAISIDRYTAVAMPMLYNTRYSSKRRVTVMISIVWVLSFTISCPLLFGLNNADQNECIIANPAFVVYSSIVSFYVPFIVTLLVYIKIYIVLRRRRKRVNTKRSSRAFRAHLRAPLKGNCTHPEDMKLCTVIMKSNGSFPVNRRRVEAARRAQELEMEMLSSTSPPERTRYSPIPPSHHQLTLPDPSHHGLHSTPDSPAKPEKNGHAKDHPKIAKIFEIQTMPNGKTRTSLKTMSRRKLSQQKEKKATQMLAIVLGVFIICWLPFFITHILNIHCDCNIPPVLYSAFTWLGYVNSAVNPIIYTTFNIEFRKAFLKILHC
#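 DiscoveRx PathHunter D2 beta-arrestin cells (2,100/well) attached overnight, then compound-stimulated 90 min at 37 C in HBSS/10 mM HEPES/0.1% Tween-20 buffer; beta-galactosidase complementation read by luminescence after 1 h at ambient temperature. Dopamine 57 uM final (EC100) as control.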
# PINK1 expr mod: changes PINK1 expression. PINK1 immunofluorescence, high-content cytometry, 24 h. Potency, µM (highest dose often 76.6 µM), without a hit: at the highest dose activation (PINK1 increase), actives largely listed as activators. 0.2% of 410,000 active. AID 624263; active = well fitted activation curve with a large enough effect; inconclusive = small, poorly fitted or top-dose-only effect; inactive = flat fitted curve, though single readings scatter; cell line not stated here;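 also: potency is read from the fitted curve at half-maximal effect; % of control where 0% means no effect; nearly all actives have a fitted effect of over 65% in size; a mitochondrial uncoupler was the plate control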
#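 Stable cell line, 250 cells/well, 12 h attachment; compounds pinned at 5 concentrations, 24 h; CCCP control. Fixed with nuclear dye, primary antibodies 12 h at 10 degrees C, secondary plus cell stain; laser-scanning cytometer read.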
# Sfp inh: blocks B. subtilis Sfp PPTase activity | Q9F4F7 | 3.5% of 310,000 active | Potency, µM, for the others: max response, negative = inhibition, hits mostly inhibitors | Biochemical Sfp PPTase activity, qHTS; active = well fitted inhibition curve with a large enough effect; inconclusive = small, poorly fitted or top-dose-only effect, or another doubt; inactive = no such curve, though single readings can be large or run the other way;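 also: the enzyme is Sfp with the accession as filed and its product quenches rhodamine fluorescence; potency is read from the fitted curve at half-maximal effect; 0% = enzyme reaction without inhibitor and -100% = no enzyme wells; top concentration of the series not given in the record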
#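 Reaction rates are the 30-min fluorescence difference (ex 525, em 598 nm) in wells containing 15 nM Sfp, 5 uM rhodamine-CoA and 12.5 uM BHQ-2-YbbR at pH 7.6 with 10 mM MgCl2.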
# ClpP mod: qHTS Assay for Activators of ClpP. 1.9% of 340,000 active. ATP-dependent Clp protease proteolytic subunit (Bacillus subtilis (strain 168)), P80244. Potency, µM (titrated, usually from 57.5 µM), without a hit: top-dose activity change, negative = active. purified B. subtilis ClpP, FRET peptide cleavage, 20 min. AID 651965, 2013; active = well fitted falling curve with a large enough effect; inconclusive = small, poorly fitted or top-dose-only effect; inactive = no such curve, though single readings can be large or run the other way; also: potency is read from the fitted curve at half-maximal effect; the source files actives as falling curves though it sought activators and does not explain the sign; nearly all actives have a fitted effect of over 65% in size; many hits overshoot -100%
# Target sequence (P80244 whole entry, looked up): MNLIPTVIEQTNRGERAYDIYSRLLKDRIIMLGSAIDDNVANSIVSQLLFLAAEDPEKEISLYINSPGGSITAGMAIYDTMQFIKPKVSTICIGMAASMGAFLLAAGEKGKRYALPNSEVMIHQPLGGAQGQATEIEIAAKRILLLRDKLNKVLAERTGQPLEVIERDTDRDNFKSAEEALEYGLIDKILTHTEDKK
#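 Buffer: 100 mM Tris/HCl pH8, 100 mM KCl, 0.05% low protease BSA, 2.5% glycerol, 0.01% Tween-20. ClpP 10 microg/mL final; 20 min RT; delta FRET normalized to ADEP and DMSO controls.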
# gsp ag: agonists of gsp mutant (McCune-Albright syndrome); 0.13% of 340,000 active; Potency, µM (doses to about 76.9 µM), without a hit: at the highest dose activation (cAMP increase), most hits filed as activators; gsp mutant cells, cAMP HTRF, 30 min; control for the full effect not named in the record; AID 624287; active = well fitted activation curve with a large enough effect; inconclusive = small, poorly fitted or top-dose-only effect, or another doubt; inactive = no such curve, though single readings can be large or run the other way; cell line not stated here;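 also: phosphodiesterase inhibitor Ro 20-1724 added with compounds to block cAMP breakdown; potency is read from the fitted curve at half-maximal effect; nearly all actives have a fitted effect of over 60% in size; about a fifth of the inactives were tested at one dose only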
#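 Cells in DMEM/10% FBS with G418 were pretreated with compounds in DMSO plus […] (300 uM stock) for 30 min at 37C. cAMP was measured by HTRF (cAMP-d2 plus anti-cAMP antibody-K) after 30 min at room temperature.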
# gsp antagonist: antagonizes gsp, the McCune-Albright syndrome mutation. gsp-mutant cells, cAMP HTRF, 30 min; control for the full effect not named in the record. Potency, µM (series often up to 76.9 µM), for inactives: top-dose activity change, negative = inhibition, hits mostly inhibitors. 0.4% of 340,000 active. AID 624288; active = falling curve of any shape with a large fitted effect; inconclusive = falling curve, mostly with a smaller effect; inactive = flat or rising curve; cell line not stated here;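 also: intracellular cAMP measured with PDE inhibitor Ro 20-1724 present during compound exposure; potency is read from the fitted curve at half-maximal effect; % is scaled to controls: 0 for no effect and ±100 for the full control effect; nearly all actives have a fitted effect of over 65% in size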
#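 Cells, 2000/well, grown 16–24 h in DMEM 10% FBS with 0.5 mg/ml G418, then compounds plus […] (300 uM addition stock), 30 min at 37C. cAMP read by HTRF (cAMP-d2 and anti-cAMP antibody-K in lysis buffer) after 30 min RT.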
# Menin MLL FP FL: displaces fluorescein MLL peptide from human menin; Fluorescence polarization, fluorescein-MLL peptide displacement from menin; FP activity change, % at 61.4 µM; 290,000 tested, under 10 active; inconclusive = falling polarisation curve, or a change in total fluorescence; inactive = total fluorescence flat and polarisation flat or rising; no compound was filed as active; the % refers to the polarisation; negative = inhibition;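 also: % of control where 0% means no effect; inhibitors lower the polarisation; unlabelled MLL peptide was the positive control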
# Numbers without * were called inactive; ? = inconclusive; . = not tested or not shown; [ ] = another dose, or the depositor's remark.
SMILES,D2 ag,PINK1 expr mod,Sfp inh,ClpP mod,gsp ag,gsp antagonist,Menin MLL FP FL
COc1cc(C)ccc1S(=O)(=O)NC1CC(C)(C)NC(C)(C)C1,0.0,-0.6%,18%,.,-13%,6%,-10
CCOc1ccc2nc(-c3ccc(OC)c(OC)c3)cc(C(=O)O)c2c1,-2.2,0.6%,0%,-13%,11%,-17%,5.7
CCCn1c(N)c(N(CCOC)C(=O)c2cc3ccccc3cc2OC)c(=O)[nH]c1=O,5.9,3.3%,.,-6.7%,-8%,3%,.
CCOC(=O)c1c(C)n(CC(O)CN(C)C)c2cc(Br)c(OC)cc12 (stereo unspecified),1.2,1.9%,24%,.,1%,4%,-1.2
CC(C)(C)c1nnc(NC(=O)NS(=O)(=O)c2ccccc2)s1,-0.1,2.3%,1%,20µM*,-21%[15.4 µM],12%,2.2
COc1ccc(Cc2nc3ccc(C(=O)N4CCCC4)cc3o2)cc1,1.3,0.3%,13%,-1.9%,?,-4%,.
Cc1ccccc1C(=O)NC1CCN(CC(=O)N2CCCCC2C)CC1 (stereo unspecified),-2.4,1.1%,1%,.,12%[15.4 µM],6%,.
CCCCn1c(=S)[nH]c2c(=O)n(C)c(=O)n(C)c21,-3.5,0.6%,.,0.1%,?,.,.
COc1ccc(NC(=O)CSC(C)c2nc3ccccc3c(=O)[nH]2)cc1 (stereo unspecified),-1.5,-0.4%,-3%,-0.8%,-4%,-2%,.
Cc1ccc(S(=O)(=O)Nc2ccc3c(c2)nc(CCN2CCN(c4ccccn4)CC2)n3C)cc1,6.5,2.8%,9%,-0.8%,10%,-20%,24
O=c1cc(NC2CCCCCC2)[nH]c(=O)[nH]1,2.4,0.1%,-8%,-10%,4%,-2%,1.9
CN(CC(=O)Nc1ccc(Cl)c(Cl)c1)CC(=O)Nc1ccc2c(c1)OCO2,6.0,-0.1%,.,0.0%,16%,-8%,.
CCCCOc1ccc(C(=O)NCC(=O)NCC(=O)OCC)cc1,-2.1,5.1%,0%,0.5%,24%,2%,-0.1
COC(=O)c1sccc1NC(=O)c1csc(C)c1,-2.5,-0.3%[38.3 µM],2%,-11%,19%,-19%,4.0
FC(F)(F)Oc1ccccc1C(c1nnnn1Cc1ccccc1)N1CCN(C/C=C/c2ccccc2)CC1 (stereo unspecified),-19,4.3%,.,-15%,.,.,.
NC(=O)C1CCN(c2cc(N3CCOCC3)ccc2[N+](=O)[O-])CC1,-0.5,-1.5%,8%,-0.4%,-33%[inhibitor],11%,-1.6
COc1ccc(C(O)c2ncc(C(F)(F)F)cc2Cl)cc1 (stereo unspecified),-1.2,2.1%,13%,.,?,1%,6.9
COC(=O)C1CCN(C(=O)COC(=O)c2ccc(N3CCCC3=O)cc2)CC1,-2.4,1.8%,.,-2.7%,38%,5%,.
C=CCn1c(SCC(=O)Nc2nccs2)nnc1-c1ccco1,-1.4,-4.1%,-7%,-0.6%,-6%,-4%,-0.1
CCC(C)[C@H](NC(=O)N1CCCCC1)C(=O)OC (stereo partly specified),1.6,3.0%,13%,60%,-3%[15.4 µM],15%,3.5
CC(NC(=O)C1CCN(S(=O)(=O)c2cc([N+](=O)[O-])ccc2Cl)CC1)c1ccccc1 (stereo unspecified),2.5,1.1%,18%,.,-1%,-14%,5.0
COC(=O)C1=C(C)NC2=C(C(=O)CC(C)(C)C2)C1c1cn(Cc2ccc(Br)cc2)nc1-c1ccccc1 (stereo unspecified),0.7,0.1%,6%,32µM*,10%,-2%,-0.7
O=C1c2ccncc2C(=O)N1c1cccc(Cl)c1,-0.8,-0.2%,5%,.,-4%[15.4 µM],7%,-6.6
C=C(C)c1cccc(C(C)(C)NC(=O)NCC2CCCO2)c1 (stereo unspecified),-0.8,4.2%,1%,-1.5%,24%,-5%,1.8
Cc1ccc(NC(=O)CSCC#N)cc1,-0.1,1.1%[38.3 µM],11%,-2.8%,2%,2%,2.9
Cc1ccc(C(=O)c2c3ccc([N+](=O)[O-])cc3[n+]([O-])n2CCC(N)=O)cc1,9.7,-0.3%,11%,1.1%,.,-13%,10
COc1ccc(CNC(=O)N2[C@H]3CC[C@@H]2C=C(c2ccc(F)cc2OCc2ccccc2)C3)cc1OC,-4.3,1.9%,.,-3.7%,-32%[inhibitor],.,.
CC(C)(C)NC(=O)Cn1nnc(-c2cccs2)n1,1.8,0.0%,10%,-12%,-25%,5%,-0.3
O=C(O)CCCCCCC1C(=O)NC(=O)N1CCC(O)C1CCCCC1 (stereo unspecified),-1.0,-0.1%,-23%,1.0%,.,6%,-0.8
CNS(=O)(=O)c1ccc(Oc2ccc(S(=O)(=O)NC)cc2)cc1,1.2,-0.3%,-3%,-0.9%,-24%,-6%,7.7
Cn1c(SCc2c(Cl)cccc2Cl)nnc1-c1cccs1,-0.2,-1.2%,-1%,-3.0%,26%,-21%,-0.7
CC(=O)Nc1ccc(S(=O)(=O)Nc2cccc(-c3csc(C)n3)c2)cc1,1.0,7.5%,-1%,0.0%,?,-10%,-0.1
CC(C)(C)NC(=S)N/N=C/c1c(Cl)cccc1Cl,-6.1,8.4%,9%,2.8%,-22%,10%,0.0
CCn1c(SCC(=O)Nc2cc(OC)ccc2OC)nc2c(c1=O)SCC2,0.5,3.6%,-1%,0.9%,-4%,4%,.
N/C(=N\OC(=O)c1cccc(C(F)(F)F)c1)c1cnccn1,-1.6,-0.2%,15%,-2.1%,8%,6%,.
CCOc1ccc(Cc2c(C)[nH]c3ccc(C(=O)O)cc3c2=S)cc1,-1.9,-1.3%,56µM*,-9.0%,3%[15.4 µM],2%,6.5
CC(=O)Nc1cc[n+](CC(=O)c2cccc([N+](=O)[O-])c2)cc1,0.3,0.8%,6%,-0.1%,4%,16%,-0.9
Brc1ccc(NC(c2ccccc2)c2ccncc2)cc1 (stereo unspecified),2.7,0.4%,-9%,-0.4%,3%,3%,-2.8
COc1cccc(-c2noc(C3CCCN(C(=O)CC(C)(C)C)C3)n2)c1 (stereo unspecified),-6.3,3.0%,13%,1.1%,-7%,-20%,-7.5
Cc1ccccc1CNC(=O)COc1ccccc1,-2.3,-0.1%,-28%,0.4%,-14%,7%,-4.4
CCCc1nc(SCC(=O)N2CCCc3ccccc32)c2c(=O)n(C)c(=O)n(C)c2n1,-1.3,3.4%,-20%,-1.8%,-18%,?,1.5
CC[C@H](C)[C@H](NC(N)=O)C(=O)NCCc1ccc(OC)c(OC)c1,0.3,1.9%,17%,0.8%,-8%[15.4 µM],-5%,-0.7
COC(=O)CNC(=O)COC(=O)/C=C/c1ccc2ccccc2n1,4.1,3.6%,-20%,.,-8%[15.4 µM],.,-0.8
O=C(NC1CC2CCCC(C1)N2Cc1ccccc1)c1cccc(F)c1 (stereo unspecified),-1.5,0.8%,14%,-3.5%,13%,5%,0.1
CC1CCCN(C(=O)Cn2nnc(-c3ccc(S(C)(=O)=O)cc3)n2)C1 (stereo unspecified),-3.9,1.7%,0%,-0.8%,-3%,7%,1.0
CSCCNC(=O)c1ccc(OC2CCN(S(=O)(=O)N(C)C)CC2)cc1,-3.1,-0.5%,25%,0.4%,-18%,8%,2.4
Cc1csc2ncc(C(=O)N3CCCc4ccccc43)c(=O)n12,-2.3,0.8%,22%,-25%,4%,8%,0.4
CN(Cc1ccccc1)c1ccc(N2C(=O)CCC2=O)cc1[N+](=O)[O-],-2.7,-1.1%,6%,.,-25%[15.4 µM],1%,-4.6
COc1ccc(CCNc2ncnc3c2[nH]c2cc(OC)c(OC)cc23)cc1OC,?,-2.0%,-18%,.,-1%[15.4 µM],-25%,-1.0
COc1ccc(C(OCC(O)CNCCc2ccccc2)c2ccc(OC)cc2)cc1 (stereo unspecified),-5.9,-3.8%,-27%,-1.5%,-9%[15.4 µM],10%,-12
COc1ccc(/C=N/NC(=O)c2cc(=O)[nH]c3ccccc23)cc1OC,1.9,0.3%,19%,.,5%,3%,9.5
CC(C)c1nc(SCC(=O)NC(=O)NC(C)(C)C)n[nH]1,-2.0,-0.6%,11%,.,23%[15.4 µM],8%,2.2
Cc1cc(NC(=O)Cn2nc(C(=O)O)c3ccccc3c2=O)c([N+](=O)[O-])cc1C,-2.1,5.5%,5%,.,-9%,-4%,1.0
CCCC(=O)c1ccc2c(c1)OCCO2,-0.4,0.7%,-5%,-6.5%,14%,-6%,4.3
O=C1CC(N2CCN(Cc3ccccc3)CC2)C(=O)N1CCc1ccccc1 (stereo unspecified),2.0,14%[38.3 µM],9%,-0.1%,9%,-2%,-0.6
O=C(COc1ccc(Br)cc1)N(Cc1cccs1)C1CCS(=O)(=O)C1 (stereo unspecified),0.8,-0.5%,5%,-1.1%,23%,-2%,-1.0

# Reformatted with each value named: entries from further up.
> O=C(NC1CC2CCCC(C1)N2Cc1ccccc1)c1cccc(F)c1 (stereo unspecified)
  D2 ag: -1.5; PINK1 expr mod: 0.8%; Sfp inh: 14%; ClpP mod: -3.5%; gsp ag: 13%; gsp antagonist: 5%; Menin MLL FP FL: 0.1
> COc1ccc(C(O)c2ncc(C(F)(F)F)cc2Cl)cc1 (stereo unspecified)
  D2 ag: -1.2; PINK1 expr mod: 2.1%; Sfp inh: 13%; ClpP mod: .; gsp ag: ?; gsp antagonist: 1%; Menin MLL FP FL: 6.9
> Brc1ccc(NC(c2ccccc2)c2ccncc2)cc1 (stereo unspecified)
  D2 ag: 2.7; PINK1 expr mod: 0.4%; Sfp inh: -9%; ClpP mod: -0.4%; gsp ag: 3%; gsp antagonist: 3%; Menin MLL FP FL: -2.8
> COc1ccc(/C=N/NC(=O)c2cc(=O)[nH]c3ccccc23)cc1OC
  D2 ag: 1.9; PINK1 expr mod: 0.3%; Sfp inh: 19%; ClpP mod: .; gsp ag: 5%; gsp antagonist: 3%; Menin MLL FP FL: 9.5
